# PABP polyA inh: PABP-poly(A) binding inhibition; PABP-poly(A) RNA binding, fluorescence polarization; inhibition, % at 35 µM; AID 2014; 1% of 290,000 active; P11940;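 active = 50% or more with normal probe brightness, or confirmed in later tests; inconclusive = above 50% with abnormal brightness, or retests that disagree; inactive = below 50% or failed in later tests; about a fifth of its hits are not listed in these tables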;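 also: calls also rest on retests at 20 µM and on dose response follow-up; controls were probe without protein and protein plus probe with vehicle; some compounds called inactive have numbers as strong as hits; many hits fall short of the cut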
# Target sequence (P11940 whole entry, looked up): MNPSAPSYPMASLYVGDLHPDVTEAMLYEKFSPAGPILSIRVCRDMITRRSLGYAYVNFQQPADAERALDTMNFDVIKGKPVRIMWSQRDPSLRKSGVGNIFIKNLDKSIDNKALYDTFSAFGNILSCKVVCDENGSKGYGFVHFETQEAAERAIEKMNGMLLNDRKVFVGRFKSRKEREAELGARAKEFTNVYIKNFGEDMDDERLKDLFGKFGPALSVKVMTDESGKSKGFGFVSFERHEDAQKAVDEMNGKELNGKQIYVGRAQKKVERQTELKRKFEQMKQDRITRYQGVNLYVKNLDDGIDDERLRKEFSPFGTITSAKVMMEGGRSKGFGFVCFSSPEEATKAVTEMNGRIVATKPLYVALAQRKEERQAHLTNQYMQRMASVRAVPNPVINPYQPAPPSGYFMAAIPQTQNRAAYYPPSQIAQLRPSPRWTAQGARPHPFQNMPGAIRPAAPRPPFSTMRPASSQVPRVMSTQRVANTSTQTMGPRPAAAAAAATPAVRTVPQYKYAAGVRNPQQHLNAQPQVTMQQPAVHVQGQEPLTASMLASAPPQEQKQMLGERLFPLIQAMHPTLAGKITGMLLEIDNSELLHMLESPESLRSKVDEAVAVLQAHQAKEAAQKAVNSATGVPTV
# MT1-MMP act inh: MT1-MMP (human) activation inhibition; HT1080 RFP-PRO-GFP cells, GFP/RFP ratio fluorescence, overnight; percent of plate control window, DMSO zero; P50281; GFP/RFP ratio change, % at 20 µM; 0.061% of 360,000 active;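 active = GFP/RFP ratio change of at least 30% with cell ATP level not reduced by more than half and red fluorescence within 50% of control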; also: strong numbers were not always called active
#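 Test system: HT1080 RFP-PRO-GFP cells; Benchmarks: DMSO and RFP-L50D-GFP cell wells; Timing: cells overnight before dosing, compound overnight, 37 °C, 5% CO2; Compound: one 20 µM compound dose with 1% DMSO; Read-out: GFP/RFP fluorescence ratio.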
# UUG fidelity: yeast start codon fidelity modulation; S. cerevisiae UUG-firefly luciferase reporter, luminescence/redox ratio; activity score, % at 18.7 µM; 0.13% of 350,000 active;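 active = replicate mean at a twofold rise or more, about +100% in these data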;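 also: firefly luciferase made from a UUG start codon reports start codon fidelity; reporter light over untreated wells divided by growth signal over untreated wells; some hits fall short of that in this replicate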
# Rce1 inh: blocks yeast Ras-converting enzyme; yeast membranes, quenched prenylated peptide cleavage fluorescence; calls only; 0.27% of 290,000 active; AID 2563;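 active = fall in fluorescence gain of 50% or more versus controls, with final raw signal at or below 3038400; inconclusive = same 50% fall but final raw signal above 3038400; inactive = fall in fluorescence gain under 50%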;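 also: plate controls were neutral control wells for no effect and wells lacking membranes for full effect; tested at 10 µM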
# HIV Env fusion: blocks HIV Env-driven cell-cell fusion | HeLa-JRFL Env/CEM21 cell fusion, luciferase | inhibition, % at 12.3 µM | 1.1% of 360,000 active;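 active = mean replicate inhibition score of at least 50 and every replicate individually at or above 50; inconclusive = only one of the two criteria met; inactive = mean below 50 and not all replicates reaching 50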;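 also: 0% = plate neutral controls and 100% = maraviroc near 300 nM; one replicate is shown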
# eIF4H FP inh: inhibitors of RNA binding by human eIF4H. Q15056. inhibition, % at 35 µM. 0.94% of 290,000 active. eIF4H fluorescence polarization binding assay;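 active = 50% or more with normal probe brightness, or confirmed in later tests; inconclusive = above 50% with abnormal brightness, or retests that disagree; inactive = below 50% or failed in later tests; about a fifth of its hits are not listed in these tables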;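 also: calls also rest on retests at 20 µM and on dose response follow-up; 0% = protein and probe with vehicle and 100% = probe without protein; strong numbers were not always called active; many hits fall short of the cut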
# CSC inhib: blocks cancer stem cells; cancer stem cell-like cells viability, luminescence; inhibition, % at 7.5 µM; 1.1% of 300,000 active;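 active = mean at 75% or more and at least half the replicates too; inconclusive = mean and replicates disagree; tested in HMLE shEcad cells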;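 also: 0% = median of negative and 100% = median of positive control wells; the first replicate is given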
# eIF4H FP inh retest: recorded beside eIF4H FP inh, whose call it bears; inhibition, %; compound at 20 µM; confirmation average;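 mean of two retest wells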
# PABP polyA inh retest: recorded beside PABP polyA inh, whose call it bears; inhibition, %; compound at 20 µM; confirmation repeats;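 mean of two retest wells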
# MT1-MMP act inh RFP: second read-out of MT1-MMP act inh, no call of its own (marks repeat the call); RFP signal change, %; measured here: RFP expression control read;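 0 = vehicle wells; hits needed this value within 50% of zero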
# Numbers without * were called inactive; i = inactive; ? = inconclusive; / = not tested or not shown; & = joins results of further samples. The list is partial; the hit share may differ from the screen's.
SMILES,PABP polyA inh,MT1-MMP act inh,MT1-MMP act inh RFP,UUG fidelity,Rce1 inh,HIV Env fusion,eIF4H FP inh,CSC inhib,others
S=C(NCCCc1cnc[nH]1)NCCCN(Cc1ccc(Cl)c(Cl)c1)c1ccc(Br)cn1,/,1,-2,-18,/,32,/,/,
NC(=O)C1CCN(C(=O)COc2ccc(S(=O)(=O)NCc3ccccc3)cc2Cl)CC1,-1,0,0,10,i,/,-4,11,
Cc1c(OC(=O)CNC(=O)OC(C)(C)C)ccc2c3c(c(=O)oc12)CCC3,-1,-10,0,-4,i,-315,10,/,
O=C(Nc1ccc(Cl)c(Cl)c1)Nn1cnnc1,4,-2,-4,-12,i,18,-2,-11,
Cc1ccccc1-n1c(=O)cc(NCC2CCCO2)[nH]c1=O (configuration not stated),-2,3,3,-1,i,/,-10,-14,
COc1ccc2c(c1OC)C(=O)N(c1ncn[nH]1)C2,4,5,3,-19,i,/,-6,-16,
Cc1ncsc1CCOC(=O)c1ccc(Cl)cc1,2,-6,-5,-22,i,-11,-3,/,
CCC(=O)N1CCCC(C)(C(=O)Nc2nccc3cccnc23)C1 (configuration not stated),/,0,5,-4,/,9,/,/,
CCNc1nc(NCC)n2c(SCC(=O)Nc3ccc(OC)c(OC)c3)nnc2n1,/,-2,0,-6,i,5,/,0,
O=C(/C=C/c1cccc(Cl)c1)Nn1c(-c2cccs2)nc2ccccc2c1=O,0,-4,-3,/,i,8,1,21,
COc1ccc(S(=O)(=O)N(C)C)cc1NC(=O)c1ccc(OCC(=O)N2CCOCC2)c(OC)c1,/,1,1,/,i,-2,/,-19,
CCCN(CC(=O)Nc1ccc(F)c(F)c1F)C(=O)Cc1ccc(OC)c(S(=O)(=O)N2CCOCC2)c1,/,5,3,2,/,10,/,/,
COc1cccc(-c2nc(CS(=O)(=O)CC(=O)Nc3cc(C)ccc3C)c(C)o2)c1,-9,-7,-1,-13,i,-8,-12,-14,
CC1=NC(=O)C(N=Nc2cccc(C(=O)O)c2)N1c1ccccc1 (configuration not stated),65*,3,5,/,i,/,13*,-2,eIF4H FP inh retest=75*;PABP polyA inh retest=107*
COc1ccc(C(=O)/C=C/c2ccc(OC3CSC3)cc2)cc1OC,-8,-2,-12,2,i,-2,-1,13,
O=C(NCC1CCCO1)c1ccccc1-c1nc(-c2ccc(F)cc2)no1 (configuration not stated),3,5,5,-8,i,/,0,-10,
NC(=O)CSc1nc2ccc([N+](=O)[O-])cc2[nH]1,12,1,-2,-19,i,-62,14,-20,
Cc1ccc(S(=O)(=O)N2CCCCC2)cc1NC(=O)CCc1nc2ccccc2c(=O)[nH]1,/,-7,6,-8,i,-3,/,-2,
CCC1=NN2C(=N)/C(=C/c3ccc(OS(=O)(=O)c4ccccc4)cc3)C(=O)N=C2S1,19,-4,-1,/,i,/,40,-4,
COc1ccc(C(NC(=O)C2C3C=CC(C3)C2C(=O)O)c2ccccc2)cc1 (configuration not stated),2,-6,-1,/,i,11,3,-14,
CC(=O)Nc1ccc(NC(=O)CCSCCc2ccccn2)cc1,37,0,3,/,i,-1,1,-10,
CC(C)(C)SCCNC(=O)CN(c1ccccc1)S(=O)(=O)c1ccc(F)cc1,-9,-1,0,11,i,-10,-2,14,
CC1CCc2c(sc(NC(=O)c3ccc(-c4ccccc4[N+](=O)[O-])o3)c2C#N)C1 (configuration not stated),7,-8,-8,-5,/,/,4,48,
CCN(CC)CCCNC(=O)c1cc2nc3c(c(C(F)(F)F)n2n1)CCc1ccccc1-3,-4,7,-2,-9,i,-6,-2,9,
O=C(NC1CCCCC1)C(c1ccc(F)cc1)N(C(=O)c1csnn1)C1CCCC1 (configuration not stated),8,1,4,0,i,9,2,-13,
CCCCC(=O)OCc1nc(N)nc(Nc2ccccc2C)n1,-6,6,9,/,i,-6,-1,-14,
O=C(CC1c2ccccc2Oc2ccccc21)N1CCN(c2ccccn2)CC1,2,-6,-5,-34,/,/,-6,20,
COCCNC(=O)C1(C)Cc2c(-c3ccc4c(c3)OCO4)ccnc2O1 (configuration not stated),/,-4,-5,-21,/,-71,/,/,
CCn1c(=O)c2ccccc2n(Cc2cccc([N+](=O)[O-])c2)c1=O,-3,2,1,-14,i,18,-2,-1,
NC(=O)C1CCN(C(=O)CNC(=O)c2ccc(Br)o2)CC1,/,-1,2,-27,i,-1,/,-14,
CN(CC(=O)Nc1ccccc1)CC(=O)Nc1ccc(F)cc1,8,1,2,-21,i,-22,-5,6,
O=C(CCc1nnc(CCc2ccccc2)o1)NC(c1cccnc1)C(F)(F)F (configuration not stated),7,-3,-3,-8,i,-14,6,-5,
CN(C)CCNc1c2c(nc3nnnn13)CCCC2,-12,2,5,-21,i,-11,-6,-7,
O=C1C=C(Nc2ccccc2O)c2ccccc2C1=O,28,12,-1,-36,i,/,31,99*,
N#CCSc1nc(-c2ccccc2)nc2ccccc12,5,2,-5,-18,i,26,-5,3,
CCc1noc(C)c1C(=O)Nc1cc(C(F)(F)F)ccc1-n1cncn1,/,-5,-1,/,i,2,/,4,
Cc1ccc(C(=O)Nc2ccc(Nc3ccccc3)cc2)c(Cl)c1,0,3,1,-23,i,-11,-4,9,
CC1(C)C(=O)Nc2ccccc2N1C(=O)COC(=O)CNS(=O)(=O)c1ccc(Br)cc1Cl,/,2,2,2,/,-8,/,/,
CCOC(=O)c1c(COC(=O)c2ccco2)nc2ccccc2[n+]1[O-],-9,4,1,-14,i,/,-10,-11,
CCCCCC(=O)N1C[C@@H](n2cc(-c3ccc(F)cc3)nn2)[C@H](O)C[C@@H]1c1ccc(C)cc1,/,1,-11,-7,/,-50,/,/,
CCOC(=O)[C@H]1[C@H]2COc3ccc(Br)cc3[C@@H]2N2C(=O)[C@H](C)NC(=O)[C@@]12C,/,0,3,-12,/,4,/,-3,
Cc1ccc(N2C(=O)C3ON(c4ccccc4)C(CC(C)C)C3C2=O)cc1 (configuration not stated),1,-1,4,/,i,-11,4,-17,
COc1ccccc1-c1c(C)oc2c(CN3CCN(C)CC3)c(O)ccc2c1=O,6,0,4,-18,?,-156,-6,3,
N#Cc1ccc(OC(=O)c2cnccn2)cc1,3,0,1,/,i,-7,6,-6,
COc1cccc(NC(=O)CN2CCN(S(=O)(=O)c3ccc(C(C)C)cc3)CC2)c1,9,-2,-6,4,i,/,11,-3,
O=C(NCC1CCCO1)C1CC1(c1ccccc1)c1ccccc1 (configuration not stated),-9,-8,-1,/,i,14,-2,-4,
COc1cccc(CC(Cc2nc3ccccc3[nH]2)c2nc3ccccc3[nH]2)c1 (configuration not stated),0,1,-2,-33,i,4,3,25,
C[C@H]1CCCCO[C@H](CN(C)CC2CCCCC2)[C@@H](C)CN([C@@H](C)CO)C(=O)c2cc(NS(=O)(=O)c3ccccc3)ccc2O1,/,-2,-4,0&54,/,-33,/,/,

# Two records drawn at random from the list so far:
SMILES,PABP polyA inh,MT1-MMP act inh,MT1-MMP act inh RFP,UUG fidelity,Rce1 inh,HIV Env fusion,eIF4H FP inh,CSC inhib,others
CCCCCC(=O)N1C[C@@H](n2cc(-c3ccc(F)cc3)nn2)[C@H](O)C[C@@H]1c1ccc(C)cc1,/,1,-11,-7,/,-50,/,/,
CCOC(=O)c1c(COC(=O)c2ccco2)nc2ccccc2[n+]1[O-],-9,4,1,-14,i,/,-10,-11,

# (listing goes on)
SMILES,PABP polyA inh,MT1-MMP act inh,MT1-MMP act inh RFP,UUG fidelity,Rce1 inh,HIV Env fusion,eIF4H FP inh,CSC inhib,others
O=C(Nc1ccc(-n2ccc(C(F)(F)F)n2)cc1)c1cccs1,-9,-1,-1,-2,i,-61,-8,7,
C/C(=N\NC(=O)CCCOc1ccc(Cl)cc1C)c1ccc(C)o1,8,2,2,-9,i,4,-10,/,
COCCNC(=O)C1(C)CCN(C(=O)c2cc(C)n(C(C)(C)C)n2)C1 (configuration not stated),/,6,9,-4,/,22,/,/,
COc1ccccc1/C=C/C=N/n1c(-c2n[nH]c3c2CCC3)n[nH]c1=S,4,-3,-11,-11,/,10,6,?,
COc1ccc(Cl)cc1NC(=O)Nn1cnnc1,-5,8,6,-20,i,-78,-6,3,
CCOC(=O)c1ccc(N2C(=O)CC(Nc3ccc(O)cc3)C2=O)cc1 (configuration not stated),-12,-1,-2,/,i,-4,0,11,
COc1cc(CCCN2C(N)=NC[C@@H]2c2ccccc2)cc(OC)c1OC,1,4,4,-25,i,-12,-16,-12,
Cc1cc([N+](=O)[O-])nn1CC(=O)NC(C)c1ccccc1 (configuration not stated),4,-9,4,-7,/,-25,4,2,
CCOc1ccc2c(c1)c(N=O)c(O)n2C,14,5,5,/,i,-43,-7,-6,
O=C(NC1CCCC1)C(c1cccs1)N(Cc1ccco1)C(=O)Cn1nnc(-c2cccs2)n1 (configuration not stated),7,-14,-5,-5,i,10,-4,5,
CCN(C(=O)CSc1n[nH]c(N)n1)c1cccc2ccccc12,/,2,1,-13,/,/,/,-8,
CCC(c1nc2ccccc2[nH]1)N(C(=O)C1=NNC(=O)CC1)c1ccccc1 (configuration not stated),/,1,3,-10,/,-19,/,/,
CCOC(=O)C12CNC(=O)C(C(=O)OCC)(CNC1=O)C2,10,1,4,-6,i,/,9,-8,
CCOC(=O)c1cnc(SCC(=O)Nc2ccc(NC(C)=O)c(OC)c2)nc1N,6,4,-2,-20,i,21,11,-13,
Cc1ccc2nc(Cl)c(C3CC(c4ccco4)=NN3C(=O)CCCC(=O)O)cc2c1 (configuration not stated),-6,2,4,/,i,12,17,-4,
CCOc1ccc(/C=N/NC(=O)C(C)Sc2ccccn2)cc1OCC (configuration not stated),2,3,7,/,i,1,-1,-7,
COc1ccc(Cn2nnnc2C(c2cc(OC)ccc2OC)N2CCC(C(N)=O)CC2)cc1 (configuration not stated),6,1,3,8,i,/,2,-3,
Cc1ccn2c(NC(=O)c3ccccc3)c(-c3cccs3)nc2c1,-1,-1,3,-16,i,9,-3,-13,
CC(C#N)Sc1ccc(S(=O)(=O)N2CCCCC2)cn1 (configuration not stated),/,15,-6,-4,/,32,/,-8,
CS(=O)(=O)c1ccc(C(=O)NNC(=O)c2ccccc2-n2cccc2)cc1,/,-2,2,-5,/,/,/,-12,
CCN(CCN1CCCC1)C(=O)C1CCC(=O)N(CCCN2CCOCC2)C1 (configuration not stated),14,0,1,-14,i,1,4,-1,
Cc1[nH]n(C(N)=S)c(=O)c1N=Nc1ccccc1C(F)(F)F,3,5,-9,-25,i,4,2,6,
COc1ccc(C(=O)Nc2ccccc2C(=O)N/N=C/c2ccc(O)c(OC)c2)cc1,-1,3,0,-92,i,/,8,61,
CC(C)OC(=O)C(C)Oc1ccc(C(=O)NCCc2ccccc2)cc1 (configuration not stated),4,0,-1,/,i,-46,2,/,
CC(=O)Oc1ccc(Cn2c(C)c(C(=O)NCCC#N)sc2=O)cc1,/,4,5,-13,/,-77,/,/,
CC(NC(=O)COc1ccccc1)C1COc2ccccc2O1 (configuration not stated),/,1,2,14,/,-16,/,-2,
CCn1cc(C(=O)NC2CC(C)(C)Cc3c2cnn3-c2cccc(F)c2)cn1 (configuration not stated),-8,-3,-3,-12,i,14,-15,-3,
CC(C)C(Nc1ccc(S(=O)(=O)N2CCOCC2)cc1[N+](=O)[O-])C(=O)O (configuration not stated),8,7,9,/,i,2,-2,-15,
CC(Nc1ccccc1N1CCCCC1)C(=O)N1CCc2ccccc21 (configuration not stated),19,-6,-10,-7,i,-2,-7,15,
Cc1ccc(-c2csc(NCCn3c(-c4ccncc4)nc4ccccc43)n2)cc1,-10,6,-6,-10,i,32,-8,3,

# Assay outcomes (PubChem BioAssay)
